# Methyltransferases: Primary Screen for Target Class Profiling of Small Molecule Inhibitors of Methyltransferases; calls only at 40 µM; purified enzyme, MTase-Glo SAH luminescence; active compounds read low; actives 3.9% (n = 25,000); active = -50% or lower on at least one of six enzymes; inconclusive = the cases between; inactive = as a rule above -30% on all six;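 further: enzymes were COMT GAMT GNMT HNMT NNMT and PNMT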
#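 Each enzyme was assayed with SAM and its substrate. SAH formation detected by MTase-Glo luminescence; single-point 40 uM screen[…].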
# Calls only; i = inactive; ? = inconclusive; + = active, no number. On the % scale 0 is the no-effect control and ±100 the full control effect.
SMILES,Methyltransferases
CC(=O)c1ccc(Nc2nc3c(S(=O)(=O)c4ccccc4)nnn3c3ccccc23)cc1,i
Cc1ccccc1Cn1nc2n(C)c(=O)c3ccc(C(=O)NC4CCCCC4)cc3n2c1=O,i
NS(=O)(=O)c1ccc(C(=O)N[C@H](c2cccs2)C2CC(O)C2)cc1 (stereo partly drawn),i
CC(C)Cc1nnc(NC(=O)C[C@H]2NC(=O)c3ccccc3NC2=O)s1,i
CC1CC(C)CN(S(=O)(=O)c2ccc3c(c2)oc(=O)n3CC(=O)NCc2ccco2)C1 (stereo not drawn),i
O=C(Cc1ccc(Cl)cc1)Nc1cnccc1C(=O)O,?
COCCn1c(C)cnc1CCNS(=O)(=O)Cc1ccccc1F,i
CC(C)OCCCN1C(=O)c2cc3ccccc3n2CC1(C)C(=O)NC1CCCCC1 (stereo not drawn),i
Cn1ncc2cc(-c3cnc(N)c(Cl)c3N3CCC4(CCNC4=O)CC3)ccc21,i
CC(C)C1NC(=O)C(CC2(O)c3ccccc3N3C(=O)C(Cc4ccccc4)NC32)NC1=O (stereo not drawn),i
CCC(C)NC(=O)c1ccc2c(=O)n(C)c3nnc(SCC(=O)Nc4ccc(C)cc4C)n3c2c1 (stereo not drawn),i
Cc1ccc(C)c(N2CCN(S(=O)(=O)c3cc4[nH]c(=O)[nH]c4cc3Br)CC2)c1,i
CC(CCc1ccccn1)(CCc1ccccn1)C(=O)c1ccccc1,?
CCCN1C(=O)c2c(C(=O)NCc3ccccc3OC)ncn2CC1(C)C(=O)NCc1ccc(C)cc1 (stereo not drawn),i
COc1ccc(CN(C)C(=O)C2(C)CCOCC2)cc1,i
CC1(C(=O)NC2CCCC2)Cn2c(cc3ccccc32)C(=O)N1c1ccc(F)cc1 (stereo not drawn),i
COc1cccc(CN2C(=O)c3cc4occc4n3CC2(C)C(=O)NC2CCCCCCC2)c1OC (stereo not drawn),i
O=C(c1coc(CN2CCN(C/C=C/c3ccccc3)CC2)n1)N1CCC[C@H]1CO,i
CCCC1CN(Cc2ccc(OC)cc2)[S+](=O)([O-])c2cnccc2O1 (stereo not drawn),i
Cc1cc(CN2C[C@@H](CO)[C@H](C(=O)N(C)C)C2)n(C)n1,i
Cn1c(=O)c2ccc(C(=O)NC3CCCCC3)cc2n2c(SCc3ccccc3F)nnc12,i
COC(=O)Cn1c(=O)oc2cc(S(=O)(=O)NCCN3CCC(C)CC3)ccc21,i
CCN(CCNC(=O)Nc1ccccc1Br)c1cccc(C)c1,i
CCCN1C(=O)c2c(C(=O)NCc3ccc(CC)cc3)ncn2CC1(C)C(=O)NCc1ccc(F)cc1 (stereo not drawn),i
Cc1ccc(NC(=O)Cn2c(N3CCN(c4ccccc4)CC3)nc(C)cc2=O)cc1,i
CCc1ccccc1NC(=O)N1CCC(Oc2ncccc2NC)C1 (stereo not drawn),i
Cn1c(=O)c2ccc(C(=O)NC3CCCCC3)cc2n2c(=O)n(Cc3c(F)cccc3Cl)nc12,i
CC(=O)N1CCc2cc(Br)c(S(=O)(=O)NCCN3CCN(c4ccccc4F)CC3)cc21,i
CCOc1ccc(CN2C(=O)c3cc4sc(CC)cc4n3CC2(C)C(=O)NC2CCCCC2)cc1 (stereo not drawn),i
CCOc1ccccc1CN1C(=O)c2nc3ccccc3n2CC1(C)C(=O)NC1CCCCC1C (stereo not drawn),i
OC(CC1c2ccccc2-c2cncn21)C1CCCCC1 (stereo not drawn),i
CC(=O)N1CC2(CCCN2Cc2cccc(C(N)=O)c2)Cc2ccccc21 (stereo not drawn),i
CCCN1C(=O)c2cc(C(=O)N3CCN(Cc4ccccc4)CC3)nn2CC1(C)C(=O)NC1CCCC1 (stereo not drawn),i
Cc1c(NC(=O)c2cc3c(s2)CCCC3)cccc1-c1cn(C)c(=O)c(Nc2ccc(C3C(=O)N(C)CCN3C)cc2)n1 (stereo not drawn),i
CC1=NS(=O)(=O)N(CCc2ccccc2)C=C1C(=O)O,i
COc1ccccc1-c1ccc2c(n1)CN(CC(=O)N1CCCC1)C(=O)CO2,i
COC1CC(=O)CCC(C)OC(=O)CC1O (stereo not drawn),i
COCCNc1cc(-c2ccc3ccccc3n2)c2cc[nH]c2n1,i
COc1ccccc1-n1cc(C(=O)N[C@H](c2cnn(C)c2)C2CC(O)C2)cn1 (stereo partly drawn),i
C/C=C/C=C/C1=C2C(=O)C3(C)C4C(C(=O)CC(O)/C=C/C)=C(O1)C1(C)C2C2(C)OC1(O)C4(C)OC23O (stereo not drawn),i
CCNC(=O)N1C[C@@H](F)[C@@H](OCc2nc3ccc(F)cc3[nH]2)C1,i
O=c1cc(-c2ccccc2)c2ccc(OCc3ccc(F)cc3)cc2o1,i
Cc1ccc(Cn2nc3n(Cc4ccccc4)c(=O)c4ccc(C(=O)NC(C)C)cc4n3c2=O)cc1,i
COc1cccc(C(=O)Cn2nc3n(CC(C)C)c(=O)c4ccc(C(=O)NC(C)C)cc4n3c2=O)c1,i
COc1ccc(CCNC(=O)c2cc3n(n2)CC(C)(C(=O)NCCC(C)C)N(C)C3=O)cc1OC (stereo not drawn),i
O=C(c1ccc2ccccc2n1)N1CC2CC(C1)[C@H]1CCCC(=O)N1C2 (stereo partly drawn),i
Cc1ccc(OCC(=O)N2CCC3(CC2)N=C(c2ccc(C)cc2)NO3)cc1,i
Cc1ccc(CNC(=O)c2ccc3c(=O)nc4c(-c5cccc(C)c5)n[nH]n4c3c2)cc1,i
O=C1CC(c2ccc([N+](=O)[O-])cc2)=NN1c1ccccc1,i
CC(C)NC(=O)c1nsc(C(=O)NCc2ccncc2)c1N,i
O=C(c1ccc(F)cc1)C1CCN(CCn2c(=O)nc3n(c2=O)CCCC3)CC1,i
CN(CCCNC(=O)c1ccc2nc3c(c(Cl)c2c1)CCCC3)Cc1ccccc1,?
O=C(CCc1nnc2n(CCc3ccccc3)c(=O)c3ccccc3n12)N1CCN(c2ccccc2F)CC1,i
CCc1cccc(NC(=O)Cn2nc3n(C4CC4)c(=O)c4ccc(C(=O)NC(C)C)cc4n3c2=O)c1,i
Cc1cc2c(cc3n2CC(C)(C(=O)NC2CCCCC2)N(Cc2cccc(Cl)c2)C3=O)o1 (stereo not drawn),i
COc1ccc2cc(CNc3ccc(C)cc3)c(=O)n(CC(=O)Nc3cccc(C(F)(F)F)c3)c2c1,+
CC(C)n1c(=O)c2ccc(C(=O)NC3CCCC3)cc2n2c(=O)n(CC(=O)NC3CCCCC3)nc12,i
CCC(C)N1C(=O)c2ccc(-c3ccco3)n2CC1(C)C(=O)NC1CCCCCCC1 (stereo not drawn),i
COc1cccc(S(=O)(=O)N2C[C@@H](C)[C@](O)(C3CCC3)C2)c1,i
COc1ccc(CNC(=O)c2ccc3c(=O)n(-c4ccc(F)cc4)c4nnc(C)n4c3c2)cc1,i

# Exported as tab-separated lines: part of the list above.
canonical_smiles	Methyltransferases
CCCC1CN(Cc2ccc(OC)cc2)[S+](=O)([O-])c2cnccc2O1 (stereo not drawn)	i
Cc1cc(CN2C[C@@H](CO)[C@H](C(=O)N(C)C)C2)n(C)n1	i
Cn1c(=O)c2ccc(C(=O)NC3CCCCC3)cc2n2c(SCc3ccccc3F)nnc12	i
COC(=O)Cn1c(=O)oc2cc(S(=O)(=O)NCCN3CCC(C)CC3)ccc21	i
CCN(CCNC(=O)Nc1ccccc1Br)c1cccc(C)c1	i
CCCN1C(=O)c2c(C(=O)NCc3ccc(CC)cc3)ncn2CC1(C)C(=O)NCc1ccc(F)cc1 (stereo not drawn)	i
Cc1ccc(NC(=O)Cn2c(N3CCN(c4ccccc4)CC3)nc(C)cc2=O)cc1	i

# Some of the entries so far, with bars between the fields:
compound | Methyltransferases
CCCN1C(=O)c2cc(C(=O)N3CCN(Cc4ccccc4)CC3)nn2CC1(C)C(=O)NC1CCCC1 (stereo not drawn) | i
Cc1c(NC(=O)c2cc3c(s2)CCCC3)cccc1-c1cn(C)c(=O)c(Nc2ccc(C3C(=O)N(C)CCN3C)cc2)n1 (stereo not drawn) | i

# Next part
SMILES,Methyltransferases
C[C@@H]1CCC2C(C)(C)[C@H](O)CC[C@]2(C)[C@@]12Cc1c(O)cc3c(c1O2)CN([C@@H](CCC(=O)O)C(=O)O)C3=O (stereo partly drawn),i
C=CCc1ccc(O[C@@H]2O[C@H](CO[C@@H]3O[C@H](CO)[C@@H](O)[C@H](O)[C@H]3O)[C@@H](O)[C@H](O)[C@H]2O)c(O)c1,?
CCCn1c(=O)c2cc(Cl)ccc2n2c(SCC(=O)NC(C)C)nnc12,i
Cc1ccc(C)c(N2CCN(C(=O)c3ccc4c(=O)nc5c(-c6ccc(F)cc6)n[nH]n5c4c3)CC2)c1,i
CCNC(=O)[C@@H]1CCCN1C(=O)[C@H](CCCN=C(N)N)NC(=O)[C@H](CC(C)C)NC(=O)[C@@H](C)NC(=O)[C@H](Cc1ccc(O)cc1)NC(=O)[C@H](CO)NC(=O)[C@H](Cc1c[nH]c2ccccc12)NC(=O)[C@H](Cc1cnc[nH]1)NC(=O)[C@@H]1CCC(=O)N1,i
Cc1ccc(N2CCN(S(=O)(=O)c3cc4[nH]c(=O)[nH]c4cc3Cl)CC2)c(C)c1,i
O=C(Cn1nc2nc(Nc3ccc(F)cc3)ccn2c1=O)Nc1cccc(F)c1,i
CC(C)CNC(=O)c1ccc2c(=O)n(CC(C)C)c3nn(CC(=O)NCc4ccccc4)c(=O)n3c2c1,i
COC(=O)c1cc2n(n1)CC(C)(C(=O)NC1CCC(C)CC1)N(c1ccc(OC)cc1)C2=O (stereo not drawn),i
O=C(NCC1CCOC1)C1CCN(c2nc(-c3ccccc3)nc3c2CCC3)CC1 (stereo not drawn),i
O=C(O)c1cc2c(s1)CCN(C(=O)c1ccc(F)cc1)C2,i
CNC(=O)[C@@H]1C[C@H](Oc2ccccc2)CN1S(=O)(=O)c1ccc2c(c1)CCC2,i
Cc1cccc(-c2n[nH]n3c2nc(=O)c2ccc(C(=O)N4CCN(c5ccccc5F)CC4)cc23)c1,i
CC1CCN(S(=O)(=O)c2ccc3c(ccn3CC(=O)NC3CCCCC3)c2)CC1,i
CC(=O)Nc1c2n(c3ccccc13)CC(C)(C(=O)NC1CCCCC1)N(Cc1ccccc1)C2=O (stereo not drawn),i
O=C(NCc1ccccc1F)C1CC(c2ccccc2)CN(C(=O)COc2ccccc2)C1 (stereo not drawn),i
O=C(c1ccco1)N1c2ccccc2CC1c1nnc(C2CCOCC2)o1 (stereo not drawn),i
CC(=O)Nc1c2n(c3ccc(C)cc13)CC(C)(C(=O)NC1CCCCCC1)N(C1CCCC1)C2=O (stereo not drawn),i
O=C(c1cccn2cncc12)N1CCOCC1,i
Cc1ccc(NS(=O)(=O)c2ccc3[nH]c4c(c3c2)CCCC4)c(C)c1,i

# In a second layout: 3 of the compounds above
SMILES | Methyltransferases
O=C(Cn1nc2nc(Nc3ccc(F)cc3)ccn2c1=O)Nc1cccc(F)c1 | i
O=C(c1cccn2cncc12)N1CCOCC1 | i
CC(C)CNC(=O)c1ccc2c(=O)n(CC(C)C)c3nn(CC(=O)NCc4ccccc4)c(=O)n3c2c1 | i

# Further structures
SMILES,Methyltransferases
Cc1ccc(N2C(=O)c3cc(-c4ccco4)nn3CC2(C)C(=O)NC2CCCCC2)cc1C (stereo not drawn),i
c1ccc(-c2ncc(CN3CCN(c4ncccn4)CC3)[nH]2)cc1,i
CN(CC(=O)NC1CCCC1)S(=O)(=O)c1ccc2[nH]c3c(c2c1)CCCC3,i
O=C1CN(Cc2ccccc2)S(=O)(=O)c2ccccc2N1Cc1ccc(F)cc1,i
COc1ccc(OC)c(CCNC(=O)CCc2nnc3n(Cc4ccc(C)cc4)c(=O)c4ccccc4n23)c1,i
CC(CN1C(=O)c2cc3occc3n2CC1(C)C(=O)NC1CCCC(C)C1C)c1ccccc1 (stereo not drawn),i
Cc1ccc(Cl)cc1N1C(=O)c2cc3occc3n2CC1(C)C(=O)NC1CCCCCCC1 (stereo not drawn),i
CCCc1cc(C)n(C)c(=O)c1CN(C)C(=O)c1cc(-c2ccc(N3CCN(C(C)C)CC3)nc2)cc2c1cnn2C(C)C,?
Cc1ccc(CNC(=O)C2(C)Cc3ccccc3C(=O)N2c2cccc(C)c2)cc1 (stereo not drawn),i
CC(C)Oc1ccc(CN2C(=O)c3nc4ccccc4n3CC2(C)C(=O)NC2CCCCC2)cc1 (stereo not drawn),i
Cc1c(Cl)cccc1N1C(=O)c2cc(-c3ccco3)nn2CC1(C)C(=O)NC1CCCCC1 (stereo not drawn),i
CCCS(=O)(=O)Nc1ccc(F)c(C(=O)c2c[nH]c3ncc(-c4ccc(Cl)cc4)cc23)c1F,+
CC1(CO)CC(O)C2(C)CCC3(C)C(=CCC4C5(C=O)CCC(OC6OC(C(=O)O)C(O)C(O)C6OC6OC(C(=O)O)C(O)C(O)C6O)C(C)(C)C5CCC43C)C2C1 (stereo not drawn),+
COc1ccc(OC)c2c1cc1n2CC(C)(C(=O)NC2CCCC2)N(Cc2ccccn2)C1=O (stereo not drawn),i
NS(=O)(=O)c1ccc(CCNc2nc3c(S(=O)(=O)c4ccccc4)nnn3c3ccccc23)cc1,i
O=C(O)CCc1nc(C2CCOCC2)n[nH]1,i
COc1ccc2cc3n(c2c1)CC(C)(C(=O)NCC1CCCO1)N(Cc1ccc2c(c1)OCO2)C3=O (stereo not drawn),i
CCC(C(=O)N(C)Cc1ccc(OC)c2ncccc12)n1cccn1 (stereo not drawn),i
CC1=C(C)C(=O)OC(C(C)C2CCC3C4C5OC5C5(O)CC(OC6OC(CO)C(OC7OC(C)C(O)C(O)C7O)C(O)C6O)CC(O)C5(C)C4CCC23C)C1 (stereo not drawn),i
CCC(C)NC(=O)c1ccc2c(=O)n(C3CC3)c3nn(CC(=O)Nc4ccc(F)cc4)c(=O)n3c2c1 (stereo not drawn),i
O=C(Nc1cc(Cl)cc(Cl)c1)c1ccn2nccc2c1,i
O=C(N[C@@H](Cc1ccccc1)C(=O)CCl)OCc1ccccc1,i
CCCn1cnc2c1CN(S(=O)(=O)c1ccc(F)cc1)[C@H](C(=O)OC)C2,i

# The list is partial; count on the stated rates, not on these rows.
